Six1-Eya2 blk: blocks human Six1 binding to Eya2. Q15475+O00167. AlphaScreen GST-Six1/His-Eya2 binding, biochemical; hits give low values; control for the full effect not named in the record. activity change, % (concentration not given with the values). 360,000 tested, 0.56% active. AID 651725; in the data active = activity change below about -65%; inconclusive = about -30% to -65%; inactive = above about -30%; also: % is scaled to controls: 0 for no effect and ±100 for the full control effect
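GST-Six1 + His-Eya2 (5X stock: 250/500 nM); Tris pH 8.0, 300 mM NaCl, 0.05% BSA, 0.02% Tween 20; GSH donor/Ni acceptor beads; 1 h 37 °C dark; AlphaScreen readout.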
D2 potentiator: human D2 receptor positive allosteric modulation. P14416. DiscoveRx D2 beta-arrestin cells, luminescence, 90 min; 100% = 57 uM dopamine signal. potentiation, % (test concentration not listed). 360,000 tested, 0.23% active. AID 624464; active = potentiation of 50% or more; inconclusive = 30% to 50%; inactive = 30% or less;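 also: compound concentration not given in the record; tested on top of an EC20 dose of dopamine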
Target sequence (P14416 whole entry, looked up): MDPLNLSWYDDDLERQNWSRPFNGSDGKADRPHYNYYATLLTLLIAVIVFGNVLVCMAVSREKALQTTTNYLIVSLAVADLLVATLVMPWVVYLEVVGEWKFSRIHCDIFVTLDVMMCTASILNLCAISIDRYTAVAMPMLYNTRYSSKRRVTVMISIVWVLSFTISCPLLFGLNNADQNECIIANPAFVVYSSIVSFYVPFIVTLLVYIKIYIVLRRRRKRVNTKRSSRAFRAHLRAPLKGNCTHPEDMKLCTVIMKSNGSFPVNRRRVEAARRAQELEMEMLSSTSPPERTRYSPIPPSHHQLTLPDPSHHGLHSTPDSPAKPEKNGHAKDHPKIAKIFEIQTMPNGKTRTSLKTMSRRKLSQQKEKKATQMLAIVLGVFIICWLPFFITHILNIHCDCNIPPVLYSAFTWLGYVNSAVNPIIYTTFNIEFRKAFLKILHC
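PathHunter D2 cells, attached overnight at 37 deg C, received compound in DMSO plus dopamine at EC20 (50 nM final) for 90 min at 37 deg C. Beta-arrestin recruitment was read as luminescence after 1 h with detection reagent at ambient temperature.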
D2 agonist: activates the human D2 dopamine receptor. P14416. DiscoveRx PathHunter D2 beta-arrestin, luminescence, 90 min; 100% = 57 uM dopamine signal. activation, % (test concentration not listed). 360,000 tested, 0.084% active; in the data active = activation above about 40%; inconclusive = about 15% to 40%; inactive = below about 15%; also: compound concentration not given in the record; the text of the record calls up to 30% inactive
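DiscoveRx PathHunter D2 beta-arrestin cells (2,100/well) attached overnight, then compound-stimulated 90 min at 37 C in HBSS/10 mM HEPES/0.1% Tween-20 buffer; beta-galactosidase complementation read by luminescence after 1 h at ambient temperature. Dopamine 57 uM final (EC100) as control.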
TRPML1 blocker: inhibitors of human TRPML1 channel; TRPML1-inducible cells, Ca2+ dye fluorescence, FDSS; hits give low values; inhibition of EC80 agonist-evoked calcium signal; activity change, negative = inhibition, % (no concentration beside the values); 390,000 tested, 0.02% active; AID 624415; in the data active means activity change below about -50%; inconclusive means about -30% to -50%; inactive means above about -30%;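 also: stimulus is agonist 54-4 at its EC80 concentration; % is scaled to controls: 0 for no effect and ±100 for the full control effect; compound concentration not given in the record; the text of the record puts the active cut at -80%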
Target sequence (Q9GZU1 whole entry, looked up): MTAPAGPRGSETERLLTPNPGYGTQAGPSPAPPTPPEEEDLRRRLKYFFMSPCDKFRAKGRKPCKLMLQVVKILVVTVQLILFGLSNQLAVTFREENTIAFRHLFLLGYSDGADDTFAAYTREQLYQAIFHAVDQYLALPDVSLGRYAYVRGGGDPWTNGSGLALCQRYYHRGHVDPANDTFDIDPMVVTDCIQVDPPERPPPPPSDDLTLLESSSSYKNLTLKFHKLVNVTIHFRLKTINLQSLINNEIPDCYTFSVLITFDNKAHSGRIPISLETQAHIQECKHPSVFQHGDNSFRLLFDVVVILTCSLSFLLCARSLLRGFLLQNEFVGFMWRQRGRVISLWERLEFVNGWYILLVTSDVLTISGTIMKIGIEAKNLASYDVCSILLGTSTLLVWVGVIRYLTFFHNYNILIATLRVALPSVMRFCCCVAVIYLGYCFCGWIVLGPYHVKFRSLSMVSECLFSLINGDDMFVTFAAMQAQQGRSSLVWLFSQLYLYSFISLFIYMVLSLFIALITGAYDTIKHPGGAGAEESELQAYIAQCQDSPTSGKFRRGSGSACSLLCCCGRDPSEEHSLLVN
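TRPML1-DL cells, Tet-induced overnight (~16 h, 37 °C) at 1,500 cells/well, were loaded with Ca8 no-wash dye plus quencher for 45-90 min at room temperature. Compounds were pinned during FDSS kinetic reading; agonist 54-4 at EC80 (4 uM final) then added.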
PINK1 modulator: PINK1 expression modulation | PINK1 immunofluorescence, high-content cytometry, 24 h | Potency, µM (series often up to 76.6 µM), without a hit: at the highest dose activation (PINK1 increase), usual class: activators | 410,000 tested, 0.2% active; active = well fitted activation curve with a large enough effect; inconclusive = small, poorly fitted or top-dose-only effect; inactive = flat fitted curve, though single readings scatter; cell line not stated here;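 also: potency is read from the fitted curve at half-maximal effect; % of control where 0% means no effect; nearly all actives have a fitted effect of over 65% in size; a mitochondrial uncoupler was the plate control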
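PINK1 protein, normally rapidly degraded, was detected by immunofluorescence after 24 hour compound treatment of a stable cell line. Titration data (5 concentrations) came from laser-scanning cytometry, with CCCP-treated wells as controls.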
TRPML1 agonist: activates the human TRPML1 channel | TRPML1-expressing cells, Ca2+ dye fluorescence, FDSS; host cell line not named in the record; reference of the full effect not given here | activation, % (concentration not given with the values) | Q9GZU1 | 410,000 tested, 0.12% active; in the data active = activation above about 50%; inconclusive = about 30% to 50%; inactive = below about 30%; also: 0% is about no effect; the text of the record puts the active cut at 80%
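Tet-induced TRPML1-DL cells, 1,500 per well, cultured overnight, were loaded with a no-wash Ca2+ dye for 45–90 min. Calcium fluorescence was recorded on the FDSS for 110 s after compound addition, before the EC80 agonist (4 uM 54-4) was added.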
Active calls of the source: *; ? = inconclusive; nt = not tested or not shown; & = joins results of further samples; [ ] = remark or other dose.

The line under a structure holds: D2 agonist | PINK1 modulator | TRPML1 agonist | D2 potentiator | TRPML1 blocker | Six1-Eya2 blk
- CCOC(=O)Cn1c(=O)c2c(nc(Br)n2CC(=O)OCC)n(C)c1=O
    -1.3 | 0.5% | -0.7 | -4 | 18 | 2
- CC(C)CC(COCc1cccc(Cl)c1)N1CCN(C(=O)c2cccc(C(F)(F)F)c2)CCC1=O (configuration not stated)
    -2.1 | 4.6% | 0.7 | -6 | 16 | 2
- COc1cc(/C=C/C(=O)O)cc(S(=O)(=O)Nc2ccc3[nH]c(=O)[nH]c3c2)c1OC
    -6.1 | 5.9% | -1.1 | -1 | 1 | 9
- Nn1c(SCC(=O)Nc2ccc(OC(F)F)cc2)nnc1-c1ccco1
    -3.9 | 0.8% | 0.0 | 19 | -3 | 6
- COC(=O)C1=C(C)Nc2nnnn2C1c1cccs1 (configuration not stated)
    0.1 | 1.5% | 0.3 | 0 | 32 | -1
- COc1cc(OC)c(/C=N/NC(=O)COc2cccc3cccnc23)c(OC)c1
    -5.6 | -0.5% | 0.9 | 3 | -9 | 0
- COc1ccc(NC(=O)CN(C)CC(=O)Nc2ccc(Cl)cc2[N+](=O)[O-])cc1
    7.5 | -0.7% | -0.8 | 11 | 24 | -12
- COc1ccccc1C(=O)NNC(=O)C1CCCO1 (configuration not stated)
    -3.2 | 0.2% | 0.7 | -3 | 24 | 0
- Cc1cc(C(=O)c2ccccc2)c(NC(=O)CCl)s1
    0.6 | -1.4% | -0.5 | -6 | -10 | 3
- CCOC(=O)c1cnc2c(C)c(Cl)ccc2c1NCCc1ccccc1
    nt | 0.7% | 3.0 | nt | 53 | nt
- Fc1ccccc1Cc1noc(CN2CCN(C/C=C/c3ccccc3)CC2)n1
    -1.6 | -0.9% | -0.2 | -26 | 11 | -8
- COc1ccc(Cn2nnc3c(=O)[nH]c(C4CCN(C(=O)c5ccccc5Cl)CC4)nc32)cc1
    -3.2 | -2.5% | 0.3 | -12 | 28 | -8
- CNS(=O)(=O)c1cn(CC(=O)NCc2ccc(OC)cc2)cc1S(=O)(=O)NC
    -2.0 | 2.0% | 0.8 | -2 | -8 | 14
- COc1cc2[nH]c(=S)nc(NCc3ccccc3)c2cc1OC
    9.5 | -1.0% | 2.2 | -6 | 8 | -78*
- CCc1cccc(-n2c(=O)c3cccnc3n2CC(=O)Nc2ccccc2C(=O)OC)c1
    nt | 1.1% | -0.5 | nt | 27 | nt

(listing goes on)
The line under a structure holds: D2 agonist | PINK1 modulator | TRPML1 agonist | D2 potentiator | TRPML1 blocker | Six1-Eya2 blk
- COc1cc(/C=C2\SC(N)=NC2=O)cc(Br)c1O
    -9.7 | -0.6% | 19 | -59 | 4 | -5
- CCSc1nnc(NC(=O)Nc2cccc(C)c2)s1
    0.5 | 13µM* | 1.8 | 2 | -7 | 1
- COc1cccc(CNc2nc3ccccc3n2CCN2CCCCC2)c1OC
    -5.1 | 0.2% | -0.1 | -8 | -18 | 12
- O=S1(=O)CC(N2CCCC2)CN1C1CCCCC1 (configuration not stated)
    1.5 | -0.3% | -0.6 | -6 | nt | 2
- CC(C)CCC(C)NC(=O)Cc1ccc(S(=O)(=O)N2CCOCC2)s1 (configuration not stated)
    -4.1 | 0.1% | 0.9 | -13 | 3 | 3
- COc1ccc(NC(=O)NC23CC4(C)CC(C)(CC(C)(C4)C2)C3)cc1OC
    -2.6 | 7.2% | 1.6 | -3 | 13 | -4
- CCOC(=O)CNc1nc(Cl)nc(Nc2ccc(Cl)cc2)n1
    -2.1 | 2.5% | nt | -9 | nt | 4
- NNC(=O)C1CC1c1ccccc1 (configuration not stated)
    6.8 | -1.6% | 3.1 | 2 | 26 | 0
- CC1CN(C(=O)COC(=O)CSc2ccc([N+](=O)[O-])cc2)CC(C)O1 (configuration not stated)
    -4.8 | 2.1% | -0.8 | 2 | 3 | 0
- CC(C)(C)C(=O)C(Cc1ccccc1)n1cncn1 (configuration not stated)
    0.2 | 4.2% | 1.4 | -22 | 6 | 2
- Cn1nc(NC(=O)C(F)(F)F)c2nccnc21
    1.4 | 2.5% | 0.8 | -8 | -4 | 3
- COc1ncnc2c1N=C1CC(C)(C)CC(N)=C1S2
    -2.0 | 1.2%[38.3 µM] | 0.7 | 6 | -9 | -7
- O=C(c1cc(-c2cccs2)nc2ccccc12)N1CCN(S(=O)(=O)c2ccccc2)CC1
    -1.4 | -7.7%[38.3 µM] | -0.4 | -12 | 2 | -3
- CCc1nc(NCCCCCO)c2nnn(Cc3ccccc3F)c2n1
    -3.2 | -0.5% | -0.6 | -23 | 2 | -4
- Cn1c(N)c(C(=O)NCc2ccccc2)sc1=S
    -5.0 | -0.4% | 0.1 | -14 | -9 | -6

Retrieved by compound from above, 3 records:
The line under a structure holds: D2 agonist | PINK1 modulator | TRPML1 agonist | D2 potentiator | TRPML1 blocker | Six1-Eya2 blk
- COc1ncnc2c1N=C1CC(C)(C)CC(N)=C1S2
    -2.0 | 1.2%[38.3 µM] | 0.7 | 6 | -9 | -7
- COC(=O)C1=C(C)Nc2nnnn2C1c1cccs1 (configuration not stated)
    0.1 | 1.5% | 0.3 | 0 | 32 | -1
- COc1ccc(Cn2nnc3c(=O)[nH]c(C4CCN(C(=O)c5ccccc5Cl)CC4)nc32)cc1
    -3.2 | -2.5% | 0.3 | -12 | 28 | -8

(next part)
The line under a structure holds: D2 agonist | PINK1 modulator | TRPML1 agonist | D2 potentiator | TRPML1 blocker | Six1-Eya2 blk
- CCOCCn1cnc2sc(C(=O)Nc3ccccc3C(=O)OC)c(C)c2c1=O
    nt | 1.0% | -1.0 | nt | -4 | nt
- O=C(NNC(=O)c1cccs1)c1ccc(Cl)cc1
    -1.8 | 0.1% | -0.3 | 5 | 28 | 7
- CCOC(=O)CNc1nc(C(C)(C)C)nc2c1nnn2Cc1ccccc1
    -2.9 | 1.4% | 0.2 | -3 | -7 | -9
- COc1ccc(/C=N/NC(=O)c2nnn(-c3nonc3N)c2-c2cccs2)cc1OC
    4.8 | 3.5% | -0.4 | 5 | 31 | -4
- CC(C)NC(=S)NC(=O)c1ccc(-c2ccccc2)cc1
    1.0 | 4.7% | 15 | -10 | -11 | -16
- COc1ccc(Br)cc1S(=O)(=O)n1nc(C)cc1C
    -0.7 | 0.5% | 0.0 | -2 | -3 | 6
- COc1cc(-c2nc(-c3ccccn3)no2)cc(OC)c1OC
    1.5 | -0.3%[38.3 µM] | -0.2 | -15 | -12 | -6
- Cc1cc(NS(=O)(=O)c2ccc(Br)s2)no1
    -1.6 | 6.5%[38.3 µM] | 0.7 | -3 | 1 | 2
- CN(C)CCN(CC1CCCN(Cc2ccccc2F)C1)C(=O)c1ccc(F)cc1 (configuration not stated)
    1.1 | 2.2% | 0.0 | -18 | 12 | -1
- Cc1ccc(C)c(S(=O)(=O)c2cn(C)c3cc(F)c(F)cc3c2=O)c1
    nt | 0.8% | -0.8 | nt | -9 | nt
- Cc1cc(Cl)ccc1OCC(=O)NNC(=O)c1cnccn1
    -3.5 | 0.8% | -0.2 | -6 | 11 | -10
- COc1cccc(NC(=O)CSc2nnc(CNC(=O)c3ccco3)n2C)c1
    -1.4 | -0.5% | 0.2 | -1 | 0 | 9
- Cc1[nH]c(=O)c(C#N)c2c1CCCC2
    -1.3 | 10%[38.3 µM] | 0.3 | 2 | 23 | 4
- O=C(OCc1cc([N+](=O)[O-])cc2c1OCOC2)c1ccccn1
    2.0 | 0.6% | 0.4 | -12 | 17 | 0
- CCOc1ccccc1NC(=O)c1c2c(nc3ccccc13)C(=O)N(C1CCCCC1)C2
    nt | 2.1% | 2.1 | nt | 13 | nt

The list goes on:
The line under a structure holds: D2 agonist | PINK1 modulator | TRPML1 agonist | D2 potentiator | TRPML1 blocker | Six1-Eya2 blk
- Cc1ccc(-c2csc(NC(=O)CCNC(=O)c3ccc(Cl)cc3)n2)cc1
    14 | -0.8% | 0.5 | -10 | 2 | 3
- COc1ccc(S(=O)(=O)NCCc2ccc(F)cc2)cc1
    -0.7 | -2.0% | 2.6 | -11 | 19 | 8
- CCC(C)N(C(=O)COC(=O)Cc1n[nH]c(=O)c2ccccc12)C1CCS(=O)(=O)C1 (configuration not stated)
    0.0 | -2.4% | 3.7 | -31 | -28 | 10
- Cc1cc(C(=O)CN2C(=O)NC(CC(C)C)C2=O)c(C)n1-c1ccccc1F (configuration not stated)
    2.2 | -0.2% | 0.2 | -6 | -1 | 15
- Cc1ccc(CC(=O)NCCS(=O)c2ccc(Cl)cc2)cc1 (configuration not stated)
    -3.8 | -2.6% | 2.2 | -3 | -1 | 10
- COc1ccc(CN(C)C(=O)CCN(c2ccccc2)S(=O)(=O)c2ccc(C)cc2)c(OC)c1
    -3.2 | 0.2% | 0.1 | -15 | 40 | -15
- N=c1ccn2c(n1)OC1C(O)[C@@H](CO)O[C@H]12 (some centres not stated)
    nt | -0.8% | -0.1 | nt | 3 | nt
- C/C(N)=C(/C#N)C(=O)CSc1nnc(Cc2ccccc2F)n1N
    0.3&0.4 | 1.4%&0.8% | 0.4&0.0 | 9&8 | 0&-11 | -5&5
- Cc1noc(C(=O)N2CCN(Cc3ccc4c(c3)OCO4)CC2)c1Cl
    -4.0 | 0.6% | -0.8 | -3 | 3 | -6
- O=C(CSc1nc2c([nH]c3ccccc32)c(=O)n1-c1ccc(F)cc1)NCc1ccccc1
    nt | -1.2% | 2.8 | nt | 8 | nt
- O=C(Nc1cccc([N+](=O)[O-])c1)c1cc2ccccc2cc1O
    4.0 | 2.5µM* | nt | -21 | nt | -2
- COc1ccc(CN2CCC[C@]3(N[C@H](c4ccc(C(F)(F)F)cc4)[C@@H]4C(=O)N(Cc5ccccc5)C(=O)[C@@H]43)C2=O)cc1
    -7.5 | 0.2% | 2.0 | -4 | 12 | 3
- Cc1nn(C)cc1C(C(=O)NC1CCCCC1)N(C(=O)Cc1cccs1)c1ccc(Cl)cc1 (configuration not stated)
    -5.5 | 10% | 1.9 | -11 | 14 | 9
- CC(=O)Nc1ccc(S(=O)(=O)NNC(=O)C(=O)NNc2ccccn2)cc1
    5.5 | 1.0% | 0.6 | 11 | 0 | ?
- CCOC(=O)CC(=O)CSc1nc(C)cc(-c2cccnc2)c1C#N
    1.1 | nt | 0.0 | -12 | -13 | -2

New compounds follow
The line under a structure holds: D2 agonist | PINK1 modulator | TRPML1 agonist | D2 potentiator | TRPML1 blocker | Six1-Eya2 blk
- COc1ccc(OC)c(Nc2cc(C)nc3ccc(C)cc23)c1
    -0.7 | 7.2% | 0.9 | -21 | 0 | -4
- CCOC(=O)c1ccc[n+](CC(=O)Nc2cc(C(F)(F)F)ccc2Cl)c1
    -3.4 | -1.2% | -0.4 | -15 | 4 | -2
- CCCc1nnc(NC(=O)CCC(=O)N2CCN(Cc3ccc(Cl)cc3)CC2)s1
    -3.1 | -0.1% | -0.3 | -8 | 46 | 0
- O=C(Nc1cc2c3c(c1)CC(=O)N3CCC2)c1ccco1
    -4.2 | 3.8% | 0.0 | 1 | 12 | -10
- COCCn1nnnc1C(c1ccc(OC)cc1)N1CCN(c2ccccc2F)CC1 (configuration not stated)
    1.2 | -0.6% | -0.3 | -5 | 16 | 3
- CC(=O)Nc1ccc(S(=O)(=O)NCC2CCC(C(=O)NC(C)c3ccccc3)CC2)cc1 (configuration not stated)
    2.1 | 1.0% | 0.6 | 0 | -3 | 4

From PubChem
